PABP polyA inh: blocks human PABP binding to poly(A) RNA; P11940; fluorescence polarization; inhibition, % at 35 µM; actives 1% (n = 290,000);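 active means 50% or more with normal probe brightness, or confirmed in later tests; inconclusive means above 50% with abnormal brightness, or retests that disagree; inactive means below 50% or failed in later tests; about a fifth of its hits are not listed in these tables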;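 further: calls also rest on retests at 20 µM and on dose response follow-up; controls were probe without protein and protein plus probe with vehicle; some compounds called inactive have numbers as strong as hits; many hits fall short of the cut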
Target sequence (P11940 whole entry, looked up): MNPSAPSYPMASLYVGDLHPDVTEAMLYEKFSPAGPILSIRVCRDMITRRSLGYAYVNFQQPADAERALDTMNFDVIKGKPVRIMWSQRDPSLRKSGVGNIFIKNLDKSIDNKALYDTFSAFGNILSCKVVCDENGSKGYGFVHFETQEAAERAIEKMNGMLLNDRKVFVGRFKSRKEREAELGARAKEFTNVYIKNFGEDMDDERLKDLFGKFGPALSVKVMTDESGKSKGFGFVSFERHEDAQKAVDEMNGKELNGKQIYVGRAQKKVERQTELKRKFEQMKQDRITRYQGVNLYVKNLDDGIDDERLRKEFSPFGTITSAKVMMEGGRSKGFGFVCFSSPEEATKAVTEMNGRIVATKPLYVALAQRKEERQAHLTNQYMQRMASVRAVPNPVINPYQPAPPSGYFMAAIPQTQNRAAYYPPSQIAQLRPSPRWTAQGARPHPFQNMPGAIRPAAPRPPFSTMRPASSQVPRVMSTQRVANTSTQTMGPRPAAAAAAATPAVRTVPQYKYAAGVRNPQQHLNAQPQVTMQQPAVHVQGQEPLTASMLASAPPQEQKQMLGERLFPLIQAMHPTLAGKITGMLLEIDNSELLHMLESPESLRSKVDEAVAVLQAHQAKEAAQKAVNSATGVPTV
MT1-MMP act inh: inhibitors of human MT1-MMP activation; GFP/RFP ratio change, % at 20 µM; P50281; AID 651647; HT1080 RFP-PRO-GFP cells, GFP/RFP ratio fluorescence, overnight; percent of plate control window, DMSO zero; actives 0.061% (n = 360,000);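 active means GFP/RFP ratio change of at least 30% with cell ATP level not reduced by more than half and red fluorescence within 50% of control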; further: strong numbers were not always called active
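Material – HT1080 RFP-PRO-GFP cells · Control set – DMSO wells and RFP-L50D-GFP cells · Incubation – overnight cell settling, then overnight compound exposure, 37 °C, 5% CO2 · Compound dosing – single-point 20 µM compound, 1% DMSO · Read-out – GFP/RFP fluorescence ratio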
HIV Env fusion: HIV envelope-mediated fusion inhibition; HeLa-JRFL Env/CEM21 cell fusion, luciferase; actives 1.1% (n = 360,000); AID 651610; inhibition, % at 12.3 µM;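 active means mean replicate inhibition score of at least 50 and every replicate individually at or above 50; inconclusive means only one of the two criteria met; inactive means mean below 50 and not all replicates reaching 50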;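 further: 0% = plate neutral controls and 100% = maraviroc near 300 nM; one replicate is shown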
eIF4H FP inh: inhibitors of RNA binding by human eIF4H. eIF4H fluorescence polarization binding assay. inhibition, % at 35 µM. actives 0.94% (n = 290,000). AID 2012;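 active means 50% or more with normal probe brightness, or confirmed in later tests; inconclusive means above 50% with abnormal brightness, or retests that disagree; inactive means below 50% or failed in later tests; about a fifth of its hits are not listed in these tables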;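 further: calls also rest on retests at 20 µM and on dose response follow-up; 0% = protein and probe with vehicle and 100% = probe without protein; strong numbers were not always called active; many hits fall short of the cut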
Yeast UUG start: alters start codon recognition fidelity in yeast. S. cerevisiae UUG-firefly luciferase reporter, luminescence/redox ratio. activity score, % at 18.7 µM. actives 0.13% (n = 350,000);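 active means replicate mean at a twofold rise or more, about +100% in these data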;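 further: firefly luciferase made from a UUG start codon reports start codon fidelity; reporter light over untreated wells divided by growth signal over untreated wells; some hits fall short of that in this replicate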
Rce1 inh: yeast Ras-converting enzyme inhibition; actives 0.27% (n = 290,000); calls only; yeast membranes, quenched prenylated peptide cleavage fluorescence;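 active means fall in fluorescence gain of 50% or more versus controls, with final raw signal at or below 3038400; inconclusive means same 50% fall but final raw signal above 3038400; inactive means fall in fluorescence gain under 50%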;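 further: plate controls were neutral control wells for no effect and wells lacking membranes for full effect; tested at 10 µM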
Target sequence (Q03530 whole entry, looked up): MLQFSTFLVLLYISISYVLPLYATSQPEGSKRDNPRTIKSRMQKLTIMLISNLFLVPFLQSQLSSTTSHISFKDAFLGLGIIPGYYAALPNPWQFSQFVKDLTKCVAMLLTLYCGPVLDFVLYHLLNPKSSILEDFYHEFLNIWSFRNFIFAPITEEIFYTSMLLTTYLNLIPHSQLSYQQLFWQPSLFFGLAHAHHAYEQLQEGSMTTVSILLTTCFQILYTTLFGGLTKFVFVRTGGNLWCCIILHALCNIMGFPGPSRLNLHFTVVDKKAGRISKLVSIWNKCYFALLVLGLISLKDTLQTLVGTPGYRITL
CSC inhib: blocks cancer stem cells. cancer stem cell-like cells viability, luminescence. inhibition, % at 7.5 µM. actives 1.1% (n = 300,000). AID 2717;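 active means mean at 75% or more and at least half the replicates too; inconclusive means mean and replicates disagree; tested in HMLE shEcad cells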;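 further: 0% = median of negative and 100% = median of positive control wells; the first replicate is given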
eIF4H FP inh retest: second read-out of eIF4H FP inh, no call of its own (marks repeat the call); inhibition, %; compound at 20 µM; confirmation average;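 mean of two retest wells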
PABP polyA inh retest: further read-out of PABP polyA inh, marked with its call; inhibition, %; compound at 20 µM; confirmation repeats;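 mean of two retest wells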
MT1-MMP act inh RFP: recorded beside MT1-MMP act inh, whose call it bears; RFP signal change, %; measured here: RFP expression control read;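 0 = vehicle wells; hits needed this value within 50% of zero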
* marks the source's active call; other numbers are inactive results; i = inactive; ? = inconclusive; . = no result given; & = joins results of further samples. No enrichment for hits (roughly 2.9% active in at least one column).

SMILES	PABP polyA inh	MT1-MMP act inh	MT1-MMP act inh RFP	HIV Env fusion	eIF4H FP inh	Yeast UUG start	Rce1 inh	CSC inhib	others
OC[C@@H]1CN(Cc2cccnc2)C[C@H](n2cnc3c(N4CCOCC4)ncnc32)O1	.	-7	0	1	.	-16	.	.
COc1ccc(CN2CCN(S(=O)(=O)c3ccccc3)CC2)c(OC)c1	18	-3	-1	-14	-6	-7	i	.
Cc1ccccc1OC(=O)n1c(=S)oc2cc(Cl)ccc21	3	3	1	-4	-2	-14	i	-7
O=C(CN1CCN(S(=O)(=O)c2ccccc2)CC1)Nc1cccc(C(F)(F)F)c1	-1	4	-2	-108	-7	19	i	17
CCCc1cc(=O)n2[nH]c(-c3ccc(Br)cc3)cc2n1	-14	3	6	.	-9	-11	i	13
CCCCOc1cccc(OCC(=O)Nc2nc3ccccc3[nH]2)c1	2	7	1	-1	9	.	i	-6
CCOC(=O)N1CCN(Cc2nc(N)nc(Nc3ccc(C)cc3)n2)CC1	-3	-1	-1	7	1	-18	i	.
Cc1cccc(NC(=O)CN2CCN(C(=O)c3oc4c(Cl)cccc4c3C)CC2)c1C	.	-1	-4	4	.	-13	.	-7
Cc1ccc(C)c(S(=O)(=O)NCC(=O)N2CCCC2)c1	-3	0	1	-4	-4	-18	i	-12
O=C(CCN1C(=O)c2ccc([N+](=O)[O-])cc2C1=O)Nc1ccccc1C(=O)O	9	8	8	-15	-13	.	i	-1
CN(C)C(=O)CSc1nnc(-c2cnccn2)n1C	7	1	7	-33	-1	.	i	3
COC(=O)Nc1ccc(S(=O)(=O)N2CCCC(C(=O)NC3CCCCC3)C2)cc1 (stereo unspecified)	85	0	-3	1	-1	-1	i	-9	eIF4H FP inh retest=-1;PABP polyA inh retest=20
O=C(NCc1ccccn1)c1coc(=O)c(Br)c1	3	-1	-1	.	4	-10	i	4
Cc1cccc(N2CC(O)(c3cccs3)[N+]3=C2CCCC3)c1C (stereo unspecified)	-10	-7	-4	6	-12	.	i	32
COc1ccc(OC)c(Nc2nc(-c3sc(NC(=O)c4ccccc4)nc3C)cs2)c1	-13	.	.	.	-8	.	i	17
O=C1c2ccccc2C(=O)N1/N=C/c1ccc(O)c(O)c1	2	-2	-3	-29	16	.	i	13
COc1cc(C(=O)NC2CC(C)(C)Cc3c2cnn3-c2ccccc2)cc(OC)c1OC (stereo unspecified)	2	0	-4	22	2	-5	i	4
CCOC(=O)/C=C/c1nc(C(=O)OCC)c(C)c(=O)[nH]1	-3	-3	-6	-1	3	-17	i	-5
CCN(CC(=O)Nc1cccc(OC)c1)CC(=O)Nc1ccccc1C	4	-3	0	1	1	-11	i	-11
CCN1C(=O)[C@H]2[C@H]3CN=C(SCc4ccccc4)N3[C@@](C)(C(=O)OC)[C@H]2C1=O	.	-1	0	-18	.	-18	.	.
COC(=O)C1=C(C(=O)OC)C(c2ccc(OC)c(OC)c2)c2sc(=O)[nH]c2S1 (stereo unspecified)	-12	2	0	-9	19	.	.	4
C[C@@H](OC(=O)c1[nH]cnc1C(=O)N1CCN(C(=O)OC(C)(C)C)CC1)c1ccccc1	.	1	-4	-4	.	-9	.	.
CC(NC(=O)C1CCN(C(=O)Nc2ccccc2)CC1)c1ccccc1 (stereo unspecified)	.	5	6	1	.	-6	i	10
CC(=O)n1ccnc1	-7	-1	1	3	-9	5	i	-1
O=C(NCC1CCN(Cc2ccccc2F)CC1)C1CCCN(c2ncnc3c2nc2n3CCCCC2)C1 (stereo unspecified)	0	-1	-10	3	-12	9	i	-11
C[C@@H]1CN([C@@H](C)CO)S(=O)(=O)c2ccc(Br)cc2O[C@@H]1CN(C)Cc1cccnc1	.	2	5	19	.	-6&-9&-2	.	.
O=C(Cn1cc(S(=O)(=O)Cc2ccccc2)c2ccccc21)N1CCOCC1	5	1	2	8	-5	-22	i	4
Cc1cc(C(=O)CSc2nnc(-c3cccnc3)n2-c2ccccc2F)c(C)n1CC1CCCO1 (stereo unspecified)	30	-2	1	.	23	.	i	-2
COc1cc2c(cc1NS(=O)(=O)N1CCCCC1)oc1ccccc12	-5	0	-2	?	-4	.	i	25
Cc1oc2cc3oc(=O)c(CCC(=O)N[C@H](C(=O)O)C(C)C)c(C)c3cc2c1C	2	1	2	-8	-4	-3	i	1
O=C1NC2(CCCCC2)C(=O)N1CCN1C(=O)c2ccccc2C1=O	-8	3	2	9	1	.	i	0
Cc1cc(C(=O)CSc2n[nH]c(N)n2)c(C)n1-c1ccc(F)cc1	6.2*	-3	-7	-40	76*	-12	i	-4	eIF4H FP inh retest=103*;PABP polyA inh retest=83*
O=C(O)Cc1csc(NC(=O)CSc2cccc(C(=O)O)n2)n1	11	1	2	-12	0	-13	i	-5
CCOCC(=O)Nc1cc(-c2cn3cccnc3n2)ccc1C	-4	0	4	.	-7	-7	i	-14
CCn1c(CCc2nc3ccccc3[nH]2)n[nH]c1=S	0	-5	0	7	-4	.	i	0
COc1ccc(C(=O)NN2C(=O)C3CCC(C)(C2=O)C3(C)C)cc1 (stereo unspecified)	4	-2	2	.	-2	1	i	0
CCOC(=O)c1cnn(-c2ccccc2)c1-n1cccc1C(=O)C(=O)Nc1ccc(F)cc1	8	3	1	.	-2	-9	i	17
CC(=O)Nc1ccc(NC2=C(Cl)C(=O)c3ccccc3C2=O)cc1	0	.	.	-3	-4	.	i	.
COc1ccc(S(=O)(=O)N2CCc3ccccc32)cc1C(=O)NCCc1ccccn1	3	0	-3	-2	-4	-7	i	-11
Cc1cc2c(c(=O)n1CCc1ccccc1)C(C(C)C)C(C#N)=C(N)O2 (stereo unspecified)	4	-2	-3	12	2	-1	i	.
Cc1cccc(-c2nnc3n2N=C(c2ccccc2)CS3)c1	0	7	-2	-90	-8	-16	i	19
COCCSc1ccccc1C(=O)Nc1ccncc1	1	-3	-2	.	-4	-20	i	.
O=c1cc(CSc2nnc(COc3ccc(Cl)cc3)o2)c2ccccc2[nH]1	0	10	6	-14	-4	-4	i	-13
O=C(O)/C=C/c1ccc2ccccc2n1	-4	1	-2	-11	0	-29	i	-11
Nc1cccc(C(=O)Nc2cccc3ncccc23)c1	14	9	6	6	28	4	i	-5
CS(=O)(=O)Nc1ccccc1C(=O)NCCSc1ccc(Cl)cc1	0	0	-6	7	1	0	i	4
Cc1cc(C)nc(N/N=C/c2ccc([N+](=O)[O-])o2)n1	-1	3	-3	4	24	-26	i	0
O=C(Nc1nc(-c2cccs2)cs1)C1=COCCO1	0	-1	0	-54	0	.	i	-4
Cc1ccc(NC(=S)N(CCCN2CCOCC2)Cc2cccnc2)cc1C	-7	-2	0	6	5	.	i	-14
Cc1ccc(-n2c(O)cnc2Nc2nc(C)cc(C)n2)cc1	-4	1	6	.	1	-26	i	-20
CCOc1ccc(S(=O)(=O)N2CCCC(C(=O)NCc3cccnc3)C2)cc1C (stereo unspecified)	6	7	-2	5	1	.	i	3
CCN(C(=O)Cn1nnc(-c2ccccc2)n1)C1CCS(=O)(=O)C1 (stereo unspecified)	.	-1	0	2	.	-10	i	-9
COc1ccc(/C=C/C(=O)OCC(=O)NC2CCCCCC2)cc1	.	3	0	1	.	-9	.	.
N#Cc1ccsc1NC(=O)c1cccc([N+](=O)[O-])c1	0	-4	-18	1	14	.	i	24
Cc1ccc(C)c(NC(=O)COC(=O)c2ccc3c(c2)OCO3)c1	71*	-4	0	17	14*	.	i	-3	eIF4H FP inh retest=108*;PABP polyA inh retest=95*
CCN1C(=O)c2cccc3c(S(=O)(=O)N(C(=O)c4ccncc4)c4ccc(OC)cc4)ccc1c23	-3	2	-4	-1	5	.	i	19
COc1ccc(-n2ncc3c(=O)n(CC(=O)N4c5ccccc5CC4C)cnc32)cc1 (stereo unspecified)	-3	-1	-14	29	6	-17	i	4
CCOC(=O)c1c(C)[nH]c(C(=O)COC(=O)c2cccnc2Cl)c1C	.	0	5	5	.	-11	.	2
Fc1ccc(-c2cc(-c3cccs3)cc(-c3ccccc3)n2)cc1	-4	1	3	17	-1	.	i	29
O=C(/C=C/c1ccc(Cl)c([N+](=O)[O-])c1)Nc1ccc(NC(=O)c2ccco2)cc1	5	-1	-1	-22	4	.	i	.

Grouped by structure: the compounds so far with a COOH group
SMILES	PABP polyA inh	MT1-MMP act inh	MT1-MMP act inh RFP	HIV Env fusion	eIF4H FP inh	Yeast UUG start	Rce1 inh	CSC inhib	others
O=C(CCN1C(=O)c2ccc([N+](=O)[O-])cc2C1=O)Nc1ccccc1C(=O)O	9	8	8	-15	-13	.	i	-1
Cc1oc2cc3oc(=O)c(CCC(=O)N[C@H](C(=O)O)C(C)C)c(C)c3cc2c1C	2	1	2	-8	-4	-3	i	1
O=C(O)Cc1csc(NC(=O)CSc2cccc(C(=O)O)n2)n1	11	1	2	-12	0	-13	i	-5
O=C(O)/C=C/c1ccc2ccccc2n1	-4	1	-2	-11	0	-29	i	-11

(continued)
SMILES	PABP polyA inh	MT1-MMP act inh	MT1-MMP act inh RFP	HIV Env fusion	eIF4H FP inh	Yeast UUG start	Rce1 inh	CSC inhib	others
Nc1nccc(N2CCCCC2)n1	.	0	3	7	.	3	.	.
O=S(=O)(N[C@H](CO)c1ccccc1)c1ccc(Br)cc1F	.	0	-1	14	.	-7	.	.
Brc1cc2ccccc2[n+](Cc2ccccc2)c1	.	1	-2	-12	.	-3	i	-5
Cc1cccc(NC(=O)CN(C)S(=O)(=O)c2cccc3cccnc23)c1	5	2	-2	-6	5	-18	i	-7
Cc1ccc(C)c(NC(=O)CN(C)C(=O)CSC(C)C(=O)Nc2cc(C)on2)c1 (stereo unspecified)	6	2	4	-22	5	0	i	7
COc1cccc(CNC(=O)COC(=O)c2cc([N+](=O)[O-])ccc2N2CCCC2)c1	.	1	-6	0	.	4	.	.
O=C1Nc2c(c(=O)[nH]c(=O)n2-c2ccccc2)C(C(F)(F)F)(C(F)(F)F)N1	-10	2	0	-34	-7	-14	i	-21
CCOc1ccccc1NC(=O)CSc1nnc(CCC(=O)Nc2ccccc2F)n1C	-12	0	-2	2	-4	-22	i	3
CSc1ccc(CN(C)C(=O)c2cc(=O)[nH]c3ccccc23)cc1	3	-1	-3	-6	-2	-6	i	-1
NC(=S)N/N=C/c1ccc(-c2cccc([N+](=O)[O-])c2)o1	-4	0	-4	.	-7	.	i	0
CCC(CC)C(=O)N(CCc1ccc(OC)cc1)Cc1nc2ccccc2c(=O)[nH]1	10	-7	-10	.	1	0	i	0
CC(O)CCC(=O)NNC1CC(=O)N(c2ccccc2)C1=O (stereo unspecified)	3	1	5	-6	-6	-5	.	-3
COCCn1c(SCC(=O)Nc2ccc3c(c2)OCCO3)nc2c(c1=O)SC(C)C2 (stereo unspecified)	-10	1	-4	35	-5	14	.	5
CCc1nc2ccc(C(=O)N3CCN(c4ccccc4)CC3)cn2c1N(C)CCC(C)C	.	-7	-11	6	.	-2	.	.
CC(Nc1[nH]c(=O)n(C)c(=O)c1N=O)c1ccccc1 (stereo unspecified)	12	-2	-1	8	3	-20	i	-10
CCCNC(=O)c1onc(CS(=O)(=O)c2cccc(OC)c2)c1C(=O)NCCC	.	-3	1	.	.	-12	i	-10
CC(C)(C)OC(=O)C[C@H]1C/C=C\C[C@H](CC(=O)N[C@@H](CO)Cc2ccccc2)C(=O)N[C@H](C(C)(C)C)COC1=O	.	-1	2	-17	.	-10	.	.

Assay outcomes: PubChem, several laboratories
